Bioassay records deposited in PubChem BioAssay by several laboratories.
Bead autofluor: compound fluorescence in toxin protease inhibitor counterscreen; compound autofluorescence counterscreen, microsphere flow cytometry; stronger effect = higher value; fluorescence intensity (no concentration beside the values); hit rate 3.1% among 360,000;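 active = at least 3 SD above the mean of all compounds, about 16000 in these data; inconclusive = too few beads counted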;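 note: 100 nL of 1 mM stock went into each well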
Mtb hypoxia inh: reduces hypoxia-regulated biosensor signal in M. tuberculosis | M. tuberculosis hypoxia-regulated fluorescent reporter, fluorescence | fluorescence inhibition, % (concentration not given with the values) | hit rate 0.1% among 300,000 | AID 1159583;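 active = 35 to 45% if threefold the growth effect, above 45% if 1.5-fold the growth effect; inactive = the rest, general growth blockers included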;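 note: wells of about 50 µL received 100 nL stock; 0% = vehicle wells and 100% = reference inhibitor wells; whole bacteria with a GFP reporter of the hypoxia response; strong numbers were not always called active; many hits fall short of the cut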
PrP UTR inh: suppresses PrP 5' UTR mRNA reporter expression. cell-based PrP 5' UTR mRNA reporter, plate reader. inhibition, % (concentration not given with the values). hit rate 0.35% among 340,000. AID 488862;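 active = every replicate at 50% or more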;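 note: 0 = median of the neutral control wells; tested in H4 reporter cells; numbers are from one replicate; inactives centre near -14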
BJeLR lethal: BJeLR cell viability loss; BJeLR (HRASV12) viability, CellTiter-Glo ATP luminescence, 48 h; reference of the scale not given here; inhibition, % (test concentration not listed); hit rate 0.17% among 300,000; AID 1554;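 active = replicate mean above 50%; inconclusive = above 50% but judged a plate artefact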;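 note: 50 nL library stock added to about 25 µL; numbers are from one replicate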
Sa RN4220 lethal: S. aureus RN4220 growth inhibition; OD600, 16 h; inhibition, % (no concentration beside the values); hit rate 0.33% among 330,000; AID 1259311;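 active = z-score of -3 or lower and OD600 up to 0.18 on both plates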;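 note: plate controls were untreated cells for no effect and reference antibiotic for full effect; stock transfer was 100 nL into about 80 µL; one replicate is shown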
Sa ugtP lethal: compounds lethal to S. aureus RN4220 ugtP deletion mutant. OD600 growth, 16 h; some inactives read as strong as hits. growth inhibition, % (concentration not given with the values). hit rate 0.54% among 330,000. AID 1259309;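 active = z-score under -3 and OD600 up to 0.15 on both plates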;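 note: plate controls were untreated wells for no effect and antibiotic for full effect; wells of about 80 µL received 100 nL stock; the first replicate is given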
Mtb hypoxia inh growth: also measured in Mtb hypoxia inh; calls as there; growth inhibition, %; measured here: M. tuberculosis growth (absorbance);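 0% = vehicle and 100% = reference antibiotic; read after six days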
* = called active by the depositor; u = inconclusive; x = not tested or not shown.

SMILES | Bead autofluor | Mtb hypoxia inh | Mtb hypoxia inh growth | PrP UTR inh | BJeLR lethal | Sa RN4220 lethal | Sa ugtP lethal
COc1ccccc1N1CCN(Cc2cc(=O)c(OCC#N)co2)CC1 | 5589 | 4 | 2 | -4 | -9 | 0.2 | 2
C=CCn1c(-c2ccccc2[N+](=O)[O-])n[nH]c1=S | 4199 | -1 | 15 | -20 | -2 | 5.0 | 8
Cc1cc(C)n(-c2ccc(C(=O)Nc3cccnc3)cc2)n1 | 3672 | -25 | -1 | -20 | 8 | -3.5 | 1
O=C(Nc1cccc(S(=O)(=O)N2CCCCC2)c1)C1CC1 | 4973 | 12 | 4 | -7 | x | 9.5 | 0
Cc1ccc2[nH]c(C(=O)O)c(NC(=O)[C@@H]3C[C@@H]3c3ccccc3)c2c1 | 4348 | 7 | 8 | 5 | 2 | 2.7 | 5
COC(=O)c1sccc1NC(=O)Nc1cc(OC)ccc1OC | 5517 | 4 | -1 | -2 | 8 | 2.4 | 5
N#CCCN(C(=O)Nc1ccc(Cl)c(Cl)c1)c1ccccc1 | 2960 | -6 | 9 | -13 | 7 | -7.1 | -30
O=C(NCc1ccc2c(c1)OCO2)Nc1ccc(F)cc1 | 5899 | 0 | 12 | -29 | 12 | -0.9 | -3
COCCNC(=O)CN(C(=O)CCC(=O)Nc1ccccn1)c1ccc(C)c(C)c1 | 4203 | 2 | 11 | 1 | -21 | 3.7 | 6
COc1ccc(-n2c(SC(CN3CCCCC3)CN3CCCC3=O)nc3ccccc3c2=O)cc1 (stereo not drawn) | 3453 | 1 | 15 | -17 | 15 | -1.0 | 16
Cc1ccc(S(=O)(=O)N2CCN(C(=O)c3cccs3)CC2)cc1 | 4127 | 7 | -4 | -16 | -5 | 0.8 | 4
CCOc1ccc(NC(=O)CN2CCN(CC(=O)Nc3ccc(F)c(F)c3)CC2)cc1 | 2736 | x | x | 0 | -5 | 3.6 | 3
N#Cc1c(SCC(=O)N2CCCCC2)nsc1SCC(=O)N1CCCCC1 | 4212 | x | x | -3 | -15 | 0.6 | 1
Oc1ccccc1CN1CCCC(N2CCN(c3cccc(C(F)(F)F)c3)CC2)C1 (stereo not drawn) | 4155 | -1 | 18 | -5 | -6 | 3.1 | 14
N#CCCn1c2ccccc2c2nc3ccccc3nc21 | 3956 | x | x | -17 | 2 | -1.3 | 7
Cc1ccc(CNC(=O)CSc2nc(C)cc(C)c2C#N)cc1 | 7374 | -1 | -1 | 11 | -2 | 10 | -6
COc1ccc(OC)c(S(=O)(=O)N(C)CC(=O)N2CCc3ccccc3C2)c1 | 3192 | 7 | 12 | -10 | 7 | 2.1 | 7
O=C(N/N=C/c1ccc2c(c1)OCO2)C(=O)Nc1ccccc1 | 4825 | x | x | -34 | 3 | x | x
CCOc1cccc(C2/C(=C(/O)c3ccc4c(c3)CC(C)O4)C(=O)C(=O)N2Cc2ccncc2)c1 (stereo not drawn) | 6256 | -1 | 1 | -15 | 6 | 0.8 | 4
COc1ccccc1-c1n[nH]c(=S)n1Cc1ccco1 | x | -5 | -2 | x | 5 | -0.5 | 0
O=C(c1cc(Cl)ccc1F)N1CCCC(Nc2ccc3c(c2)OCCO3)C1 (stereo not drawn) | 5107 | 6 | 5 | -19 | 9 | 0.4 | 5
O=C(OCCCN1CCCC1)C1(c2ccccc2)CCCC1 | 24071* | 2 | 14 | -11 | 2 | 10 | -11
CCc1ccccc1N(CC(=O)N1CCCCCC1)S(C)(=O)=O | 3636 | -3 | -1 | -24 | -2 | 5.7 | 2
COc1cc(C)c(C(C)C)cc1S(=O)(=O)NCCCn1ccnc1 | 3802 | x | x | -11 | 5 | 1.0 | -1
COC(=O)c1ccc(C(=O)OC)c(NC(=O)CSc2nnc(-c3ccccc3Cl)o2)c1 | 2465 | -10 | -7 | -32 | 2 | 5.7 | -12
CCc1ccc(S(=O)(=O)Nc2cccc(-c3ccc4nnc(C)n4n3)c2)s1 | 5350 | 8 | 1 | -14 | -4 | 0.2 | 10
O=C(O)CNC(=O)/C(=C/c1cccc([N+](=O)[O-])c1)NC(=O)c1ccco1 | 7525 | -1 | -7 | -25 | -5 | -3.6 | -1
C/C(=N\NC(=O)c1nnn(-c2nonc2N)c1CSc1ccccc1)c1ccco1 | 6376 | x | x | -6 | 8 | x | x
CC(C)CCNC(=O)CN(C(=O)CCC(=O)Nc1ccccn1)c1ccc(F)c(Cl)c1 | 3145 | 9 | 3 | -49 | 2 | 8.5 | -4
CC12CCC(C(=O)NC3CCCCC3)([C@H](Br)C1=O)C2(C)C (stereo partly drawn) | 5881 | 4 | 8 | 1 | -1 | 3.8 | -2

Part of the list above, with values under each structure:
The line under a structure holds: Bead autofluor	Mtb hypoxia inh	Mtb hypoxia inh growth	PrP UTR inh	BJeLR lethal	Sa RN4220 lethal	Sa ugtP lethal
- O=C(OCCCN1CCCC1)C1(c2ccccc2)CCCC1
→ 24071*	2	14	-11	2	10	-11
- C/C(=N\NC(=O)c1nnn(-c2nonc2N)c1CSc1ccccc1)c1ccco1
→ 6376	x	x	-6	8	x	x

(list continues)
SMILES | Bead autofluor | Mtb hypoxia inh | Mtb hypoxia inh growth | PrP UTR inh | BJeLR lethal | Sa RN4220 lethal | Sa ugtP lethal
Cn1c(SCC(=O)c2c(N)n(C)c(=O)n(C)c2=O)nnc1-c1ccccc1F | 4575 | 5 | -1 | -19 | 5 | 8.4 | 15
COc1cc(OC)nc(Oc2cccc(Cl)c2C)n1 | 5365 | 15 | 4 | x | -1 | 3.1 | 8
CC1(C)NC(=O)N(CC(O)Cn2c3ccccc3c3ccccc32)C1=O (stereo not drawn) | 3391 | 14 | -1 | -7 | 5 | 3.0 | 5
Cc1ccc(-c2nnc3ccc(SCC(=O)Nc4cc(C)on4)nn23)cc1 | 20468* | 3 | 3 | -30 | 1 | 3.7 | 60
COc1ccc2ccccc2c1C=NNC(=O)CC1(C)OCCCO1 | x | 4 | 10 | x | x | 0.4 | 15
CCOc1ccc(Oc2c(C=NNC(C)=O)c(C)nn2-c2ccccc2)cc1 | x | 9 | 9 | x | x | -5.1 | 7
O=C(NCCCO)C(=O)NCC(c1ccc2c(c1)OCO2)N1CCN(c2ccc(F)cc2)CC1 (stereo not drawn) | 5193 | x | x | -39 | -8 | x | x
COc1ccccc1OCC(=O)Nc1ccc(S(=O)(=O)Nc2cc(C)nc(C)n2)cc1 | 2773 | x | x | -21 | -2 | 2.5 | 3
CCOc1ccc(CN2C(=O)c3ccccc3C2C(=O)NCC2CCCO2)cc1 (stereo not drawn) | 3684 | -7 | -1 | -6 | 9 | 1.4 | 0
COc1ccc(/C=N/NC(=O)c2[nH]c(C)c(C(=O)N/N=C/c3ccc(OC)cc3)c2C)cc1 | 9139 | x | x | -22 | 11 | x | x
O=C(CNC(=O)c1ccc(S(=O)(=O)N2CCCC2)cc1)NN=Cc1ccc(Cl)cc1Cl | x | 1 | -2 | x | x | -1.0 | 1
CCCCn1c(NC(=O)c2ccco2)c(C(=O)OCC)c2nc3ccccc3nc21 | 12004 | -7 | -2 | -23 | -2 | 34 | -9
CS(=O)(=O)N1CCc2cc(C(=O)Nc3ccccc3Br)ccc21 | 3401 | 4 | 0 | -53 | 0 | 2.0 | 4
Cc1cccc(C)c1NC(=O)C1CCCN1C(=O)Nc1cccc(F)c1 (stereo not drawn) | 5586 | 2 | 6 | -10 | 4 | 3.2 | 0
COC(=O)c1cc(OC)c(OC)cc1NC(=S)N1CCN(c2ccccn2)CC1 | 4714 | 18 | 10 | -5 | 1 | 6.4 | -1
CCOc1ccc(-c2cn(S(=O)(=O)c3cccc4nsnc34)nc2N)cc1 | 4613 | x | x | 3 | 0 | -4.7 | 61
O=c1[nH]ncc2c3ccccc3n(Cc3ccc(F)cc3)c12 | 2937 | 4 | 8 | -5 | -9 | 5.9 | -12
CC(C)Oc1ccccc1C1(c2ccccc2)NC(=O)NC1=O (stereo not drawn) | 3890 | 5 | 9 | -18 | -7 | 3.7 | 2
CCOC(=O)CCN1C(=O)c2ccccc2Sc2ncccc21 | 2891 | 9 | 3 | -12 | 3 | 1.8 | 6
CCSc1ccccc1C(=O)NCc1ccc(OC)cc1 | 24298* | 15 | 6 | -24 | 4 | 5.7 | 3
O=C(Nc1cccc(Cl)c1)c1ccc2c(c1)OCCO2 | 5894 | -3 | -11 | -86 | 0 | 5.7 | -1
CCN(CC)C(CNC(=O)CSc1nnnn1-c1cccc(F)c1)c1ccco1 (stereo not drawn) | 2981 | -1 | -5 | -13 | x | 2.0 | 6
CN(CC(=O)Nc1ccc(Cl)cc1)C1CCCCC1 | 3384 | x | x | -6 | 8 | 3.9 | 7
Cc1cc(C(=O)COc2cc(F)ccc2[N+](=O)[O-])c(C)n1CC1CCCO1 (stereo not drawn) | 5332 | 0 | -1 | 11 | x | 5.7 | 7
C/C(N)=C(/C#N)C(=O)CSc1nc2cc(Cl)ccc2c(=O)n1-c1ccc(C)cc1 | 2255 | x | x | -8 | 2 | x | x
O=C(N/N=C/c1cccnc1)C(=O)N1CCCCCC1 | 3289 | x | x | -8 | -1 | x | x
CCCS(=O)(=O)c1c(S(=O)(=O)CCC)c2cc(-c3ccncc3)ccn2c1C(=O)OC | 4154 | -10 | -2 | -20 | -3 | 0.3 | 10
O=C(NN=Cc1ccccc1O)c1ccc2c(c1)OCO2 | x | -2 | -3 | x | x | 6.1 | -3
CCc1nn(CC(=O)NCc2cccnc2)c(=O)c2cc3occc3n12 | 4761 | 12 | 2 | -11 | 12 | 6.8 | 10
O=C(NCC(=O)N1CCCCCCC1)c1ccccc1Br | u | 9 | -3 | -21 | 1 | 4.3 | 5

No new results follow: two of the compounds above.
SMILES | Bead autofluor | Mtb hypoxia inh | Mtb hypoxia inh growth | PrP UTR inh | BJeLR lethal | Sa RN4220 lethal | Sa ugtP lethal
O=C(Nc1cccc(Cl)c1)c1ccc2c(c1)OCCO2 | 5894 | -3 | -11 | -86 | 0 | 5.7 | -1
CCN(CC)C(CNC(=O)CSc1nnnn1-c1cccc(F)c1)c1ccco1 (stereo not drawn) | 2981 | -1 | -5 | -13 | x | 2.0 | 6

Next part:
SMILES | Bead autofluor | Mtb hypoxia inh | Mtb hypoxia inh growth | PrP UTR inh | BJeLR lethal | Sa RN4220 lethal | Sa ugtP lethal
C=CCOc1ccc(CNn2c(C)n[nH]c2=S)cc1OC | 2747 | -2 | 9 | 3 | 1 | 1.4 | 0
CCOC(=O)[C@@H]1[C@H]2COc3ccc(Br)cc3[C@@H]2N2C(=O)N(c3cccc(F)c3)C(=O)[C@]12C | 3583 | x | x | -10 | 10 | x | x
CC(C)=CCN1CCN(Cc2ccc3nsnc3c2)CC1CCO (stereo not drawn) | 4093 | 0 | 8 | -6 | -13 | 10 | 2
OCCNc1nc(N2CCCC2)nc(N2CCCC2)n1 | 2455 | 9 | 10 | -13 | -5 | -4.0 | 0
c1ccc(-n2ncc3c(N4CCN(c5ccccn5)CC4)nc(N4CCCCCC4)nc32)cc1 | 19448* | -1 | -1 | -60 | 5 | -0.5 | 2
CSC(=NC#N)N1CCN(c2ccc(Cl)cc2)CC1 | 8330 | 7 | 24 | -30 | 6 | 5.2 | 8
CN(C(=O)COc1ccc(Cl)cc1Br)C1CCCCC1 | 6818 | 6 | 16 | -28 | 0 | 0.6 | -6
CC(C)(C)NC(=O)COC(=O)c1ccc2c(c1)C(=O)N(Cc1ccco1)C2=O | 5295 | -7 | 1 | -19 | -4 | 4.5 | 3
CC(C)c1ccc(NC(=S)NNc2ccc(Cl)c(C(=O)O)c2)cc1 | 4839 | 3 | 2 | -16 | 0 | -10 | -1
CC(=O)N(C)c1ccc(C(O)(C(F)(F)F)C(F)(F)F)cc1 | 5168 | -11 | -11 | 1 | 0 | 5.9 | 11
COc1ccc(C(CNC(=O)c2cccc(S(=O)(=O)N(C)c3ccccc3)c2)N2CCCC2)cc1 (stereo not drawn) | 59722* | -7 | 4 | 0 | x | -5.8 | -2
Cc1nc2ccc(NC(=O)c3cc(S(=O)(=O)N(C)c4ccccc4)ccc3Cl)cc2s1 | 2873 | -3 | 9 | 0 | 23 | 3.5 | -3
COc1ccccc1N1N=C(c2cccs2)CC1c1ccccc1 (stereo not drawn) | 2498 | 4 | -1 | -30 | 10 | -2.0 | 35
O=C(O)C1(c2ccccc2)CCN(S(=O)(=O)c2ccccc2)CC1 | 4504 | -8 | 1 | 7 | -8 | 1.7 | 8
O=C(C1CCCO1)N1CCN(C(=S)Nc2ccccc2)CC1 (stereo not drawn) | 3937 | -5 | 5 | -18 | 0 | 0.6 | -1
CCOc1ccc(NC(=O)CN(C)C(=O)c2ccc(N3CCCCCC3)c([N+](=O)[O-])c2)cc1OCC | u | 2 | -2 | -10 | -1 | 0.6 | 7
